# rRNA inh HTS – reduced GFP signal of wild-type E. coli, primary screen, bacterial rRNA inhibitor project, GFP/RFP fluorescence, OD600, single point | GFP signal change (wild-type ribosome), % (test concentration not listed) | AID 720706, 2013 | E. coli WT GFP vs humanized-ribosome RFP mutants, 24 h; stronger effect = lower value; DMSO median 0, no signal -100 | hit rate 1.6% among 350,000;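 active = significant combined selectivity score with lowered wild-type GFP, culture density cut under 30%, mutant RFP and density less affected; inactive = any of these conditions unmet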; also: one replicate is shown; some compounds called inactive have numbers as strong as hits
# FGF22 binding – binders of human FGF22 protein, primary screen, FGF22 synaptogenesis inhibitor project, biophysical, thermal shift, single point. Fibroblast growth factor 22 (Homo sapiens), Q9HCT0. recombinant FGF22 thermal shift, SYPRO orange fluorescence; percent of sucrose octasulfate shift, DMSO zero. calls only at 9.99 µM. hit rate 1.5% among 340,000;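 active = melting point raised past a set limit in the mean and every replicate; three in four hits are not shown here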
# Target sequence (Q9HCT0 whole entry, looked up): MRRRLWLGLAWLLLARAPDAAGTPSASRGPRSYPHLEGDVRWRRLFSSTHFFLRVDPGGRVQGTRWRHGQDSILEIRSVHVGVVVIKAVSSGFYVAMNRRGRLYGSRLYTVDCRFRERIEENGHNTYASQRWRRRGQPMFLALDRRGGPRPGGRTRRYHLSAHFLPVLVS
# MLL AF4-AF9 inh – inhibitors of AF4 peptide binding to AF9, primary screen, biochemical, AlphaScreen, biotin-AF4 peptide, FLAG-AF9, single point | inhibition, % at 10 µM | hit rate 0.47% among 350,000 | AID 651704, 2012 | Protein AF-9 (Homo sapiens), P42568;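 active = every replicate reaching a set inhibition limit, whatever the replicate mean, cut at about 25% in these data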;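 also: 0% = plate neutral control median and 100% = total signal loss; the record names both 10 and 1 µM as test concentration; the first replicate is given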
# Target sequence (P42568 whole entry, looked up): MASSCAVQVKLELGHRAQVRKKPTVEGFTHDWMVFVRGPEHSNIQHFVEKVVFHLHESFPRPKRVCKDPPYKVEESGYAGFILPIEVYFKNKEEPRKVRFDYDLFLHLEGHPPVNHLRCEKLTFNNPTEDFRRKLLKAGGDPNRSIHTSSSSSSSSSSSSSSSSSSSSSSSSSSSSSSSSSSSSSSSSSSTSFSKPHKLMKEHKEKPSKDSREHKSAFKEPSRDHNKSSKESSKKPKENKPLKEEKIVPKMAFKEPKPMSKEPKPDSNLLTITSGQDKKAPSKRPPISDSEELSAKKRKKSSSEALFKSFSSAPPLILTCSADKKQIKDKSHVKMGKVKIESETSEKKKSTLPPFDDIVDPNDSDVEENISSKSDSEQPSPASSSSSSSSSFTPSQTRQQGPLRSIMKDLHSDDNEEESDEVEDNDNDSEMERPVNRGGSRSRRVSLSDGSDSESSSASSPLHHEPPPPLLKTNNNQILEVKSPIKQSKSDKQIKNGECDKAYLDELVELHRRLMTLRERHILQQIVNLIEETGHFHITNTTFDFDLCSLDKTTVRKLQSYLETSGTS
# rRNA inh HTS OD600 – also measured in rRNA inh HTS; calls as there; OD600 change, %; measured here: OD600 growth;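 optical density of the mix in the first replicate; 0 = DMSO median and -100 = no signal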
# rRNA inh HTS RFP – second read-out of rRNA inh HTS, no call of its own (marks repeat the call); RFP signal change, %; measured here: RFP humanized mutant strains;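 first replicate; 0 = DMSO median and -100 = no signal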
# * hit, by the source's call; i = inactive; & = joins results of further samples. Some of the compounds tested (hit frequency here may not be typical).
SMILES,rRNA inh HTS,rRNA inh HTS OD600,rRNA inh HTS RFP,FGF22 binding,MLL AF4-AF9 inh
C[C@@H]1CCCCO[C@H](CN(C)S(=O)(=O)c2cccs2)[C@@H](C)CN([C@@H](C)CO)C(=O)c2cc(NC(=O)Nc3ccc(F)cc3)ccc2O1,6,5,1.8,i,-4.0
COc1ccc(C(C)(NC(C)=O)c2nc(-c3ccc(F)c(Cl)c3)cs2)cc1 (centres undefined),-10,-34,14,i,0.5
COc1ccccc1C#Cc1ccc2c(c1)O[C@@H](CN(C)Cc1ccccc1)[C@@H](C)CN([C@H](C)CO)S2(=O)=O,6,2,-2.5,i,-1.4
CCCNC(=O)C[C@H]1CC[C@H]2[C@@H](COC[C@H](O)CN2C(=O)Nc2cccc(Cl)c2)O1,-61,-74,-18,i,-2.3
C[C@@H]1CN([C@@H](C)CO)C(=O)c2cc(C3=CCCC3)cnc2O[C@@H]1CN(C)Cc1ccc(C(=O)O)cc1,-1,1,-3.2,i,-6.1
C[C@H]1CN([C@@H](C)CO)C(=O)c2cc(-c3ccc(C#N)cc3)cnc2O[C@H]1CN(C)C(=O)c1ccccc1,1,9,-0.6,i,-2.4
O=C(/C=C/[C@H]1O[C@@H](n2ccc(=O)[nH]c2=O)[C@H](O)[C@@H]1O)NCCc1c[nH]c2ccccc12,-1,2,-3.9,i,-0.6
CC(=O)N(C)C[C@H]1Oc2cc(C#CCC3CCCC3)ccc2S(=O)(=O)N([C@@H](C)CO)C[C@@H]1C,-24,-65,13,i,5.4
Cc1cc(C)n2c(Nc3ccc4c(c3)OCCO4)c(-c3cc4ccccc4o3)nc2n1,-2,13,1.7,i,0.3
C[C@@H]1CCCCO[C@H](CN(C)S(=O)(=O)c2ccc(Cl)cc2)[C@H](C)CN([C@H](C)CO)C(=O)c2cc(NS(C)(=O)=O)ccc2O1,-9,-22,1.1,i,5.0
O=C(Cc1ccccn1)NCC[C@H]1CC[C@H](NC(=O)CN2CCOCC2)[C@@H](CO)O1,2,3,-1.1,i,0.0
C[C@@H]1CN([C@@H](C)CO)C(=O)c2cccc(NS(=O)(=O)c3ccc(F)cc3)c2O[C@H]1CN(C)S(=O)(=O)c1ccccc1,-1,3,0.7,i,-2.8
C[C@@H]1CN([C@H](C)CO)C(=O)c2cccc(NC(=O)NC3CCCCC3)c2O[C@@H]1CN(C)C(=O)NC1CCCCC1,-1,-1,-3.6,i,-0.9
O=C(Nc1ccc2c(c1)OCCO2)C1c2ccccc2OCC(=O)N1CCCN1CCOCC1 (centres undefined),18,24,2.8,i,-2.8
C[C@@H]1CN([C@H](C)CO)C(=O)Cc2cc(NS(=O)(=O)c3ccc(Cl)cc3)ccc2O[C@@H]1CN(C)S(C)(=O)=O,-2,-2,-2.2,i,-1.5

# Two of the compounds above, with each value named:
O=C(Nc1ccc2c(c1)OCCO2)C1c2ccccc2OCC(=O)N1CCCN1CCOCC1 (centres undefined)
  rRNA inh HTS: 18	rRNA inh HTS OD600: 24	rRNA inh HTS RFP: 2.8	FGF22 binding: i	MLL AF4-AF9 inh: -2.8

C[C@@H]1CN([C@H](C)CO)C(=O)Cc2cc(NS(=O)(=O)c3ccc(Cl)cc3)ccc2O[C@@H]1CN(C)S(C)(=O)=O
  rRNA inh HTS: -2	rRNA inh HTS OD600: -2	rRNA inh HTS RFP: -2.2	FGF22 binding: i	MLL AF4-AF9 inh: -1.5

# (cont.)
SMILES,rRNA inh HTS,rRNA inh HTS OD600,rRNA inh HTS RFP,FGF22 binding,MLL AF4-AF9 inh
O=C(NC1CCCCC1)c1ccc2ccccc2c1,6,30,-2.0,i,-4.2
C[C@@H]1CN([C@H](C)CO)C(=O)c2cc(NC(=O)Nc3ccc(F)cc3)ccc2O[C@@H](C)CCCCO[C@H]1CN(C)Cc1ccccc1,-47,-50,42,i,12
CN1C(=O)c2cc(NS(=O)(=O)c3cccc(F)c3)ccc2OC[C@@H]2O[C@H](CC(=O)N3CCc4ccccc4C3)CC[C@H]21,-1,-16,0.1,i,3.5
COc1ccc2c3c(n(C)c2c1)[C@@H](CO)N(C(=O)NC(C)C)CC31CCN(C(=O)NC(C)C)CC1,-3,4,-1.4,i,-2.1
C[C@@H]1CN([C@H](C)CO)C(=O)c2cc(NS(=O)(=O)c3ccccc3)ccc2O[C@H]1CN(C)CC1CC1,2,-2,0.1,i,-1.7
CCCC#Cc1ccc([C@@H]2[C@H](CO)N3CCCCN(S(=O)(=O)CC)C[C@@H]23)cc1,11,0,-0.4,i,4.3
COCC#Cc1ccc([C@H]2[C@@H](CO)N3CCCCN(C(=O)Nc4cc(F)ccc4F)C[C@@H]23)cc1,1,3,-1.4,i,-3.2
Cc1nc(N(C)C2CCCCC2)c2nnn(Cc3ccc(F)cc3)c2n1,1,3,-2.4,i,0.4
COc1ccc(C#Cc2ccc([C@H]3[C@@H](CO)N4C(=O)CN(C(=O)NC(C)C)C[C@H]34)cc2)cc1,1,11,-0.1,i,-4.4
CCCC(=O)Nc1ccc2c(c1)OC[C@@H](C)N(Cc1ccccn1)C[C@@H](C)[C@H](OC)CN(C)C2=O,-2,-3,-1.2,i,-1.4
Cc1ccc(-c2csc3ncnc(N4CCN(S(=O)(=O)c5ccc(C#N)cc5)CC4)c23)cc1,3,-7,0.5,i,-1.0
C[C@H]1CN([C@@H](C)CO)C(=O)c2cc(NC(=O)CCC(F)(F)F)ccc2O[C@H]1CN(C)S(=O)(=O)c1ccc(F)cc1,3,-1,1.5,i,-1.2
CCOc1ccccc1C(=O)NC(C(=O)OCC(=O)NNC(=O)c1cccs1)C(C)C (centres undefined),0,-8,3.0,i,-0.2
COc1ccc(NC(=O)COC(=O)c2ccc(S(=O)(=O)N3CC(C)CC(C)C3)cc2)cc1OC (centres undefined),1,16,1.7,i,-1.9
COc1ccccc1CNC(=O)C[C@H]1C[C@@H]2c3cc(NC(=O)CN(C)C)ccc3O[C@@H]2[C@@H](CO)O1,2,2,0.4,i,-0.2
Cc1cccc(CN(C)C[C@H]2OCc3cn(nn3)CCCC(=O)N([C@@H](C)CO)C[C@H]2C)c1,0,0,-1.2,i,-0.2
CCc1ccccc1OCC(=O)Nc1nnc(C2CC2)s1,15,14,0.1,i,-4.8
O=C(C[C@H]1CC[C@@H]2[C@H](COC[C@@H](O)CN2S(=O)(=O)c2cccc(Cl)c2)O1)NC1CCCC1,-3,-8,2.4,i,26*
C[C@@H]1CN([C@@H](C)CO)C(=O)c2cc(NC(=O)NC3CCCCC3)ccc2O[C@@H](C)CCCCO[C@H]1CN(C)Cc1ccc2c(c1)OCO2,-2,-9,-2.0,i,4.0
O=C(NCCN1CCCCC1)[C@@H]1N[C@@H]2c3ccc(-c4ccc(F)cc4)c(=O)n3C[C@@H]2[C@H]1CO,1,-7,0.0,i,-1.2
C[C@H]1CN([C@@H](C)CO)C(=O)c2cc(NS(C)(=O)=O)ccc2O[C@@H]1CN(C)Cc1ccncc1,2,2,-1.8,i,-3.3
O=C(NCCc1ccccc1)[C@@H]1[C@@H](CO)[C@@H]2Cn3c(cccc3=O)[C@H]1N2C(=O)C1CC1,-2,-4,-2.7,i,-0.3
CN(C)C(CNC(=O)c1sc2ccccc2c1Cl)c1ccco1 (centres undefined),-10,-6,3.8,i,7.9
C[C@@H]1CN([C@@H](C)CO)C(=O)CCCn2nncc2CO[C@@H]1CN(C)C(=O)OCc1ccccc1,0&0,8&-2,0.8&-0.9,i,-3.6&-0.1&-0.2
CC1=C(C(=O)N(C(C)C)C(C)C)CC(CC(=O)NCc2ccco2)C(=O)N1Cc1ccccc1 (centres undefined),-1,3,-2.1,i,2.4
CC(C)Cc1ccc(-c2cc3nc(NCC4CC4)ccn3n2)cc1,-2,-2,0.5,i,0.7
Cc1ccc(S(=O)(=O)N(C)C[C@H]2Oc3ccc(NC(=O)Nc4ccc(F)cc4)cc3CC(=O)N([C@@H](C)CO)C[C@H]2C)cc1,1,-11,0.4,i,1.4
C[C@@H]1CN([C@H](C)CO)C(=O)CCCn2nncc2CO[C@H]1CN(C)CC1CCCCC1,1,4,0.1,i,0.6
O=C(C[C@@H]1C[C@@H]2c3cc(NC(=O)C4CCC4)ccc3O[C@@H]2[C@H](CO)O1)NCc1ccccc1F,5,6,1.3,i,-2.2
CN(C)CC(=O)N1[C@H](C#N)[C@@H](c2ccc(-c3cccc(C(=O)N(C)C)c3)cc2)[C@@H]1CO,5,13,0.7,i,-1.5

# The final 5 records of the part before come first, to join the parts.
SMILES,rRNA inh HTS,rRNA inh HTS OD600,rRNA inh HTS RFP,FGF22 binding,MLL AF4-AF9 inh
CC(C)Cc1ccc(-c2cc3nc(NCC4CC4)ccn3n2)cc1,-2,-2,0.5,i,0.7
Cc1ccc(S(=O)(=O)N(C)C[C@H]2Oc3ccc(NC(=O)Nc4ccc(F)cc4)cc3CC(=O)N([C@@H](C)CO)C[C@H]2C)cc1,1,-11,0.4,i,1.4
C[C@@H]1CN([C@H](C)CO)C(=O)CCCn2nncc2CO[C@H]1CN(C)CC1CCCCC1,1,4,0.1,i,0.6
O=C(C[C@@H]1C[C@@H]2c3cc(NC(=O)C4CCC4)ccc3O[C@@H]2[C@H](CO)O1)NCc1ccccc1F,5,6,1.3,i,-2.2
CN(C)CC(=O)N1[C@H](C#N)[C@@H](c2ccc(-c3cccc(C(=O)N(C)C)c3)cc2)[C@@H]1CO,5,13,0.7,i,-1.5
CN(C)C(=O)C[C@H]1CC[C@H]2[C@@H](COC[C@H](O)CN2C(=O)C2CCCC2)O1,10,8,20,i,-0.4
Cc1ccc(S(=O)(=O)Nc2ccc3c(c2)CC(=O)N([C@@H](C)CO)C[C@H](C)[C@@H](CN(C)Cc2ccc(Cl)c(Cl)c2)O3)cc1,2,10,7.1,i,0.5
CCCc1cn(CC[C@H]2CC[C@@H](NC(=O)C3CCCC3)[C@@H](CO)O2)nn1,4,9,1.1,i,2.5
Cc1ccccc1NC(=O)COC(=O)COc1ccc2ccc(=O)oc2c1,2,10,0.0,i,-2.1
CO[C@@H]1CN(C)C(=O)c2ccc(NC(=O)C3CC3)cc2OC[C@H](C)N(CCc2ccccc2)C[C@H]1C,-6,-14,0.5,i,-0.9
COC(=O)c1ccc2nc(-c3ccccc3)c(Cc3ccccc3C(F)(F)F)n2c1,12,14,0.1,i,-3.0
COc1ccc(NC(=O)N(C)C[C@H]2Oc3ccc(N(C)C)cc3CC(=O)N([C@@H](C)CO)C[C@H]2C)cc1,3,8,-2.2,i,-0.9
COC(=O)c1ccc2nc(-c3ccc(C)cc3)c(CC3CCCCC3)n2c1,1,7,25,i,-1.5
COc1cc(C(=O)N2CCCC(c3cc(C(=O)NCc4ccccc4)no3)C2)cc(OC)c1C (centres undefined),6,-15,12,i,1.6
CCNC(=O)C[C@@H]1CC[C@@H](NC(=O)NC2CCCCC2)[C@@H](CO)O1,3,3,-3.5,i,-0.1
C[C@@H]1CCCCO[C@H](CN(C)S(=O)(=O)c2cn(C)cn2)[C@H](C)CN([C@@H](C)CO)C(=O)c2cc(NC(=O)Nc3ccc4c(c3)OCO4)ccc2O1,-2,-8,0.7,i,8.6
C[C@@H]1CCCCO[C@@H](CN(C)C(=O)C2CCCCC2)[C@@H](C)CN([C@@H](C)CO)C(=O)c2cc(NC(=O)CCC(F)(F)F)ccc2O1,5,5,-0.5,i,-1.0
C[C@H](CO)N1C[C@H](C)[C@H](CN(C)Cc2cccc(C(F)(F)F)c2)OCc2ccccc2-c2ccccc2C1=O,-5,-24,3.5,i,2.3
COc1cccc(-c2cn(CC[C@@H]3CC[C@@H](NC(=O)CN(C)C)[C@@H](CO)O3)nn2)c1,0,2,0.8,i,-2.0
CCc1nc2c(OCCC3CCCCC3)cccn2c1N(C)C(=O)c1cccs1,-12,-35,-0.3,i,1.4
CNC(C)C(=O)NC(C(=O)NC(C(=O)Nc1cccc2ccccc12)C(C)C)C(C)C (centres undefined),14,6,2.6,i,0.4
C[C@@H]1CCCCO[C@H](CN(C)Cc2ccc(C(=O)O)cc2)[C@H](C)CN([C@@H](C)CO)C(=O)c2cc(NS(=O)(=O)c3ccc(Cl)cc3)ccc2O1,0,1,-2.2,i,-1.6
C[C@H]1CN([C@@H](C)CO)C(=O)c2cc(NS(=O)(=O)c3cn(C)cn3)ccc2O[C@@H]1CN(C)S(=O)(=O)c1ccc(Cl)cc1,1,1,1.7,i,-1.9
C[C@@H]1CN([C@@H](C)CO)C(=O)c2cc(NC(=O)Cc3ccccc3)ccc2O[C@H]1CN(C)C,-3,5,-3.2,i,-0.9
C[C@@H]1CN([C@@H](C)CO)C(=O)c2cccc(NC(=O)Nc3ccc4c(c3)OCO4)c2O[C@H]1CN(C)C(=O)Nc1ccc2c(c1)OCO2,0,5,0.7,i,6.7
C[C@H](CO)N1C[C@H](C)[C@H](CN(C)Cc2cncnc2)Oc2ncc(C#CC3(O)CCCC3)cc2C1=O,9&8,14&11,-3.7&-1.2,i,0.8&-5.3&-6.2
CO[C@H]1CN(C)C(=O)c2ccc(NC(=O)C3CC3)cc2OC[C@@H](C)N(C)C[C@@H]1C,2,1,-2.3,i,-0.5

# High-throughput results from PubChem.
